TSHR ag: TSH receptor (human) agonism; AID 926; P16473; 0.48% of 73,000 active; HEK293-CNG-TSHR cells (CNG channel as cAMP sensor), membrane potential dye, cAMP; Potency, µM (top dose mostly 57.1 µM), inactives show top-dose activation, usual class: activators; active = well fitted activation curve of enough size with the parental cells flat; inconclusive = any curve in the parental cells; inactive = parental cells flat and receptor cells flat or falling; further: potency means the concentration at half of the fitted maximal effect; % of control where 0% means no effect; weak receptor curves with flat parental cells got no call and are not listed
Target sequence (P16473 whole entry, looked up): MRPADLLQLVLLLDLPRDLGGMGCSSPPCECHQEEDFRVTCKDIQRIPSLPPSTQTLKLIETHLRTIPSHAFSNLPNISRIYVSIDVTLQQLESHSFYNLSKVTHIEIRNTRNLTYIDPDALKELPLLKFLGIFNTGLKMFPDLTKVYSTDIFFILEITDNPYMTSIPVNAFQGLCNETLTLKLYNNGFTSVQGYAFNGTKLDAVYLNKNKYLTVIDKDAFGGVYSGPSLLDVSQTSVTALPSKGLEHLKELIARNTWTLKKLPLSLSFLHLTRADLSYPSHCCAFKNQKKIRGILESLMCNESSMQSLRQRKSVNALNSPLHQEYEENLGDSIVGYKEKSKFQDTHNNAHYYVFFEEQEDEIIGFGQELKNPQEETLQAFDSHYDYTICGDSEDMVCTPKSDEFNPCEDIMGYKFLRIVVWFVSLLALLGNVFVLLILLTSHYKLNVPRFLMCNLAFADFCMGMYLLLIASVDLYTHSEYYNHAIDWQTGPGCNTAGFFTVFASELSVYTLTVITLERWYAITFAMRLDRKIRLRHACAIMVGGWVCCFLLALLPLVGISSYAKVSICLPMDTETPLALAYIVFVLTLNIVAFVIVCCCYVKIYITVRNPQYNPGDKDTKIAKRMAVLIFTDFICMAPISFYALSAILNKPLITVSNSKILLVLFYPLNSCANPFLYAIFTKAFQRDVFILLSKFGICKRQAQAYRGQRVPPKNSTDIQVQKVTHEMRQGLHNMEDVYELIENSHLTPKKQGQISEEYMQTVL
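HEK 293 cells stably expressing TSHR and a cAMP-gated CNG channel; parental CNG-only cells as counterscreen. Cells preloaded 60 min with membrane potential dye plus 100 uM RO 20-1724, then compound 30 min; fluorescence read at 590 nm.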
A647 fluor: compound autofluorescence in A647 spectral region | max dye-equivalent concentration, M | 59,000 tested, under 10 active | AID 592 | Compound fluorescence, A647 channel (570/671 nm), Tris buffer; active means above 1 µM dye equivalent; inconclusive means 0.1 to 1 µM; inactive means 0.1 µM or less;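 further: values scaled relative to a standard on each plate; highest value over a series up to 38 µM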
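Tris 100 mM pH 8.0; cpd + A647 stds pin-transferred; 15 min RT; CCD imager, ex 570/em 671. Output = A647-equivalent conc. per cpd conc.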
AID923: qHTS Assay for Allosteric/Competitive Inhibitors of Caspase-1: Spectroscopic Profiling in AFC Spectral Region. compound fluorescence, AFC spectral region (405/520 nm); almost no hit is shown here. Potency, µM (top dose mostly 57.5 µM), for inactives: at the top dose fluorescence increase, most hits filed as activators. 1.1% of 75,000 active. AID 923, 2007; active means well fitted activation curve with a large enough effect; inconclusive means small, poorly fitted or top-dose-only effect;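 further: potency means the concentration at half of the fitted maximal effect; 0% is about no effect; scaled to a free AFC standard on each plate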
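Titrations up to 57 uM read every 20 sec for 3 min (405/520 nm) with 50 nM caspase 1 and 5 uM Ac-WEHD-AFC, pH 7.5 HEPES buffer. Fluorescence-vs-time intercept gave baseline, scaled against on-plate AFC standard.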
Resorufin fluor: compounds fluorescent in resorufin spectral region; Compound fluorescence, resorufin region 547/598 nm, buffer; hits give high values; max dye-equivalent concentration, M; 0.04% of 59,000 active; active = above 10 nM dye equivalent; inconclusive = 1 to 10 nM; inactive = 1 nM or less; a few of its hits are not listed in these tables; further: highest value over a series up to 38 µM
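Intrinsic fluorescence profiled in the resorufin window (ex 547 nm, em 598 nm) after 15 min at room temperature in pH 8.0 Tris buffer (100 mM); responses normalized against a six-point resorufin standard series as dye-equivalent concentration.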
A488 autofl: compound autofluorescence in A488 spectral region. compound autofluorescence, A488 spectral region, dye equivalency; hits give high values. max dye equivalency, M. 0.1% of 59,000 active; active = above 10 nM dye equivalent; inconclusive = 1 to 10 nM; inactive = 1 nM or less; about half of its hits are not listed in these tables;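 further: highest value over a series up to 38 µM; compound alone in buffer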
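Autofluorescence read at ex 480/em 540 nm after 15 min RT in 100 mM Tris pH 8.0; compound signal normalized to A488 standard series on each plate, reported as dye-equivalent concentration at each test concentration.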
Starred values were filed as active, the others as inactive; i = inactive; ? = inconclusive; · = not tested or not shown; & = joins results of further samples; [ ] = another dose, or the depositor's remark.

SMILES | TSHR ag | A647 fluor | AID923 | Resorufin fluor | A488 autofl
Cc1nc2ccc(NC(=O)Cn3cnc4c3c(=O)n(C)c(=O)n4C)cc2s1 | -1% | 8.5e-09 | -1.9% | i | i
NC(=O)c1cccn1Cc1ccccc1Cl | 11% | 7.3e-09 | -2.4% | i | i
Cn1nnc2c(N3CCCCC3)nccc21 | ? | 1e-09 | -1.1% | i | i
Cc1cc(NCC2CCCO2)n2c(nc3ccccc32)c1C#N (centres undefined) | · | 7.5e-09 | · | i | i
O=C(NC12CC3CC(CC(C3)C1)C2)N1CC2Cc3cccc(=O)n3C(C2)C1 (centres undefined) | 13% | 5.1e-08 | -1.2% | i | i
Cc1ccc(N(C)C(=O)N2CCN(S(=O)(=O)c3ccc(C)cc3)CC2)cc1 | 16% | · | 1.5% | · | ·
CC(C)CN(CCCNC(=O)CC1Oc2ccccc2NC1=O)CC(C)C (centres undefined) | 3%[11.4 µM] | 7.8e-09 | 1.0% | i | i
C=CC[C@@H]1C=C[C@H](O/N=C(\C)CCN2CCCCc3nc(C)c(C)cc32)[C@H](CO)O1 | -5%[11.4 µM] | · | -0.9%[11.5 µM] | · | ·
COc1ccc(NC(C)=O)cc1NC(=O)CN1CCN(CC(=O)Nc2ccccc2Cl)CC1 | ? | 1e-09 | -0.6% | i | i
COc1ccc(N2CCN(C(=O)c3ccc(NS(=O)(=O)c4ccc(F)c(F)c4)cc3)CC2)cc1 | -16% | 3.9e-09 | -3.6% | i | i
CCOC(=O)CN(Cc1ccccc1)S(=O)(=O)c1ccc(NC(C)=O)cc1 | -10% | 1e-09 | -2.0% | i | i
CCCSc1ncnc2c1oc1ccccc12 | 5% | 3e-09 | 0.4% | i | i
CC(=O)c1cccc(NC(=O)C2CCCN(S(=O)(=O)c3cccc4cccnc34)C2)c1 (centres undefined) | 1% | · | -0.6% | · | ·
O=C(NCCCN1CCCCCC1)c1ccc(N2CCCC2=O)cc1 | 12% | 5.1e-09 | 0.0% | i | i
CCn1c(=O)n(CC(=O)Nc2cc(OC)ccc2OC)c(=O)c2ccccc21 | 2%[11.4 µM] | 1e-09 | -0.3% | i | i
Cc1cc(C)nc(N2CCC(C(=O)Nc3cccc(C(F)(F)F)c3)CC2)n1 | 12% | 1e-09 | 0.6% | i | i
COc1ncc2nc(-c3ccccc3)c(=O)n(-c3ccccc3)c2n1 | 3% | 1e-09 | 4.7% | i | i
COc1cccc(C(C(=O)NC2CCCC2)N(C(=O)c2ccco2)C2CC2)c1OC (centres undefined) | 14% | 2.4e-08 | -0.3% | i | i
CCN(CC)CCCN1C(=O)c2oc3ccccc3c(=O)c2C1c1cc(OC)ccc1OC (centres undefined) | 2% | 3e-09 | -1.3% | i | i
O=C(O)CSCCCC(=O)Nc1ccc(Br)cc1 | 0% | 1.7e-08 | 2.2% | i | i
Cc1ccc(SCCC(=O)NCc2ccco2)cc1 | -5% | 1.7e-08 | -0.1% | i | i
CCN(Cc1ccccc1)C(=O)Cn1cc2c(n1)CCCC2 | ? | · | -2.5% | · | ·
COc1ccc(-c2nc(CS(=O)CC(=O)NCc3cccnc3)c(C)o2)cc1 (centres undefined) | -11% | · | -0.3% | · | ·
c1cncc(-c2nn3c(-c4ccncc4)nnc3s2)c1 | 0% | 1e-09 | 4.3% | i | i
CCCOc1ccc(S(=O)(=O)NCCN2CCOCC2)c2ccccc12 | ? | 5.5e-08 | -1.5% | i | i

The closing two entries of the part before come first, to join the parts.
SMILES | TSHR ag | A647 fluor | AID923 | Resorufin fluor | A488 autofl
c1cncc(-c2nn3c(-c4ccncc4)nnc3s2)c1 | 0% | 1e-09 | 4.3% | i | i
CCCOc1ccc(S(=O)(=O)NCCN2CCOCC2)c2ccccc12 | ? | 5.5e-08 | -1.5% | i | i
CCCCNC(=O)CC1Nc2ccccc2NC1=O (centres undefined) | 0% | · | -2.2% | · | ·
Cc1ccc(C)c(/C(O)=C2\C(=O)C(=O)N(CCCn3ccnc3)C2c2ccncc2)c1 (centres undefined) | -1% | 1e-09 | 3.6% | i | i
O=C(Nc1ccccc1Cl)c1c(F)c(F)c(F)c(F)c1F | 9% | 3.5e-09 | -2.3% | i | i
Cc1cc(C)c(NC(=O)Cn2cc3c(n2)CCCC3)c(C)c1 | ? | · | -0.9% | · | ·
Cc1cc(C)cc(N(CC(=O)Nc2c(C)n(C)n(-c3ccccc3)c2=O)S(C)(=O)=O)c1 | 7%[11.4 µM] | · | -0.4% | · | ·
CCC1Oc2ccc(C)cc2N(CC(=O)NCc2ccccc2OC)C1=O (centres undefined) | ? | 1.9e-09 | -2.4% | i | i
Cc1cc(C(F)(F)F)nc(SCC(=O)NC2CC3CCC2C3)n1 (centres undefined) | 8% | 1e-09 | -1.7% | i | i
COc1cccc(-c2nc(C(N)=O)c3[nH]c(=O)n(-c4cccc(Cl)c4)c3n2)c1OC | 0% | · | 2.5% | · | ·
CN1C(=O)CC(N2CCC(C(N)=O)(N3CCCCC3)CC2)C1=O (centres undefined) | 1% | 1e-09 | -1.5% | i | i
COc1ccc(NC(=O)c2cc(C(C)C)on2)c(OC)c1 | 6% | · | -1.5% | · | ·
Cc1ccc(Cn2ccc(NC(=O)c3cc(C(C)C)on3)n2)cc1 | ? | · | -2.5% | · | ·
Cc1ccccc1-c1nnc(SCC(=O)Nc2cccc(C)c2C)o1 | 11%[11.4 µM] | 3.5e-08 | 0.2% | i | i
O=C(NC1CCCCC1)C(c1ccccc1)N1CCOCC1 (centres undefined) | 4% | 4e-09 | 1.1% | i | i
Cc1cc(NC(=O)COc2ccc(N(C)S(=O)(=O)c3ccccc3)cc2)no1 | ? | 8.5e-09 | -0.3% | i | i
COc1cc(C(=O)Nc2ccc(OCC(=O)O)cc2)cc(OC)c1OC | 1% | · | -2.8% | · | ·
NC(=O)C1CC(O)CN1c1nc(CN2CCOCC2)nc2scc(-c3ccccc3)c12 (centres undefined) | ? | 3.3e-08 | 1.3% | i | i
Cc1ccc(CNC(=O)[C@H](C)[C@@H]2C[C@@]2(C)[C@@H](NC(=O)OCc2ccccc2)c2ccccc2)c(F)c1F | 0% | · | 0.3% | · | ·
CCN(CC)Cc1c[nH]c2c(C(=O)OC)cccc12 | -2% | · | 3.4% | · | ·
O=C(O)c1cccnc1-c1ncccc1C(=O)O | 0%[11.4 µM] | 1e-09 | 2.2% | i | i
Cc1cc(C)c2nc(C(F)(F)F)nc(N3CC(C)OC(C)C3)c2c1 (centres undefined) | ? | 1.7e-08 | 0.5% | i | i
O=C(O)CCCCCC[C@@H]1C(=O)NC(=O)N1CC[C@@H](O)C1CCCCC1 | ? | 1e-09 | · | i | i
O=c1cc(O)nc(SC23CC4CC(CC(C4)C2)C3)[nH]1 | 4% | 7e-09 | 1.0% | i | i
O=C(Nc1ccccc1N1CCN(c2ccc(F)cc2)CC1)c1ccccc1 | ? | 4.7e-08 | 1.2% | i | i
COc1ccc(Cl)c(Cn2c(NCCCO)nc3c2c(=O)n(C)c(=O)n3C)c1 | -5% | 2.7e-08 | -0.5% | i | i
O=C(NCc1cn2ccsc2n1)c1cccc(C(F)(F)F)c1 | 2%[11.4 µM] | 6.4e-09 | 0.1% | i | i

Random excerpt: 5 entries already listed.
SMILES | TSHR ag | A647 fluor | AID923 | Resorufin fluor | A488 autofl
Cc1ccc(CNC(=O)[C@H](C)[C@@H]2C[C@@]2(C)[C@@H](NC(=O)OCc2ccccc2)c2ccccc2)c(F)c1F | 0% | · | 0.3% | · | ·
O=C(NC1CCCCC1)C(c1ccccc1)N1CCOCC1 (centres undefined) | 4% | 4e-09 | 1.1% | i | i
Cc1ccccc1-c1nnc(SCC(=O)Nc2cccc(C)c2C)o1 | 11%[11.4 µM] | 3.5e-08 | 0.2% | i | i
COc1ccc(NC(=O)c2cc(C(C)C)on2)c(OC)c1 | 6% | · | -1.5% | · | ·
O=C(NCc1cn2ccsc2n1)c1cccc(C(F)(F)F)c1 | 2%[11.4 µM] | 6.4e-09 | 0.1% | i | i

Next entries follow:
SMILES | TSHR ag | A647 fluor | AID923 | Resorufin fluor | A488 autofl
CCOC(=O)c1[nH]c(C)c(C(=O)NC2CCCCCC2)c1C | 13% | 1e-09 | 0.9% | i | i
Cc1ccc(N(CC(=O)Nc2ccc(S(=O)(=O)N3CCOCC3)cc2)S(C)(=O)=O)cc1C | -12% | · | 1.3% | · | ·
CCOC(=O)CSc1nnc(CSc2nc3ccccc3c(=O)[nH]2)n1-c1ccccc1 | 21% | 1.9e-08 | -0.4% | i | i
CC(C)(S)[C@@H](N)C(=O)O | · | 2.3e-09 | · | i | i
CCOc1ccc2[nH]c(=O)c(CN(Cc3ccco3)Cc3nnnn3Cc3ccccc3)cc2c1 | ? | 4.4e-09 | 4.2% | i | i
O=c1cc(CSc2nnnn2-c2ccccc2)nc2nc[nH]n12 | 3% | 1.9e-08 | -3.4% | i | i
CCCn1c(SCC(=O)Nc2nc(C)cs2)nnc1-c1cccnc1 | 2% | 9.7e-09 | -2.3% | i | i
CCN1CCN(C(=O)C(C)N(c2ccc(C)cc2)S(C)(=O)=O)CC1 (centres undefined) | 10% | 3e-08 | 1.0% | i | i
O=C(Nc1ccc(Cc2ccncc2)cc1)c1ccc(Br)o1 | -8% | 2e-08 | 0.2% | i | i
COc1ccc(OC)c(CCNC(=O)CC2Oc3ccccc3NC2=O)c1 (centres undefined) | 6% | · | 2.0% | · | ·
CCc1[nH]nc2c1C1(C(=O)N(Cc3ccccc3)c3ccccc31)C(C#N)=C(N)O2 (centres undefined) | 16% | 1e-09 | -0.9% | i | i
CC(C)C(NC(=O)c1cccs1)c1nnc(SCC(=O)Nc2nccs2)n1C (centres undefined) | 14% | 2.4e-08 | 0.3% | i | i
Cc1nc(NC(=O)CN2CCOCC2)sc1-c1ccccc1 | ? | 1e-09 | -0.5% | i | i
CS(=O)(=O)c1ccc(CNC(=O)[C@H]2C[C@@H]2[C@H](NP(=O)(c2ccccc2)c2ccccc2)c2ccccc2)cc1 | 2% | · | -3.7% | · | ·
O=C(NCCN1CCOCC1)C1CCN(S(=O)(=O)N2CCCCC2)CC1 | 3% | 1e-09 | 0.3% | i | i
O=c1c2ccccc2nc2c3ccccc3ncn12 | 18% | 1e-09 | 1.3% | i | i
COCCCNC(=O)Cn1nnc(-c2ccccc2NC(=O)c2ccc(F)cc2)n1 | -5% | 3.2e-09 | 0.6% | i | i
Cc1cccc(-n2ncc3c(NCc4ccco4)ncnc32)c1 | · | 1e-09 | · | i | i
CC[N+](CC)(CC)CC(=O)Nc1c(C)cccc1C | 4%&-2% | 3e-08 | -4.7%&-1.3% | i | i
O=C(Cc1ccccc1)NCCn1ccc2ccccc21 | 6% | · | 2.9% | · | ·
COc1ccccc1N(Cc1cc2cccc(C)c2[nH]c1=O)C(=O)C(C)C | · | 3.2e-08 | · | i | i
CCCNC(=O)N1CCN(c2nc(C(C)C)c3c(c2C#N)CC(C)(C)OC3)CC1 | 2% | · | 6.8% | · | ·
CCOC(=O)c1nnc2ccnn2c1N | -5% | 1.8e-08 | -0.4% | i | i
COc1cccc(-c2nc(CS(=O)CC(=O)O)c(C)o2)c1 (centres undefined) | 4% | · | 2.3% | · | ·
O=C(O)C1CC=CCC1C(=O)Nc1cccc(Cl)c1 (centres undefined) | -2% | · | 2.0% | · | ·
SMILES | TSHR ag | A647 fluor | AID923 | Resorufin fluor | A488 autofl
N#Cc1c(NC(=O)CSc2ncn[nH]2)sc2c1CCCCC2 | 10% | 1e-09 | 0.3% | i | i
COc1ccc(-c2nc3n(c2Br)CCC3)cc1 | · | 9.5e-08 | · | i | i
O=C(CN1CCc2[nH]c3ccccc3c2C1)N1CCCCC1 | · | 7.1e-08 | · | i | i
CCOc1cc(-c2nc(-c3ccncc3)no2)cc(OCC)c1OCC | -1% | · | 1.5% | · | ·
COc1ccc(OC)c(C(c2nnnn2C2CCCC2)N2CCN(c3ccc(F)cc3)CC2)c1 (centres undefined) | ? | 1e-09 | 0.5% | i | i
Cc1ccc(/C(O)=C2/C(=O)C(=O)N(CCN3CCOCC3)C2c2ccccn2)cc1 (centres undefined) | 4% | 1e-09 | 8.5% | i | i

Not all compounds are listed; the hit share may differ from the screen's.
